# MT1-MMP act inh = blockers of MT1-MMP proenzyme processing, primary screen, HT1080 RFP-PRO-GFP cells, GFP/RFP fluorescence | AID 651647, 2012 | GFP/RFP ratio change, % at 20 µM | 0.061% of 360,000 active | GFP/RFP ratio fluorescence, overnight; percent of plate control window, DMSO zero;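 active means GFP/RFP ratio change of at least 30% with cell ATP level not reduced by more than half and red fluorescence within 50% of control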; further: strong numbers were not always called active
#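 Assay system – RFP-PRO-GFP reporter HT1080 cells · Compound dosing – single dose of 20 µM compound, 1% DMSO final · Incubation – overnight compound exposure at 37 °C · Measure – GFP/RFP fluorescence ratio · Benchmarks – DMSO wells and RFP-L50D-GFP cells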
# Rce1 inh = yeast Rce1p protease inhibitors, primary screen, biochemical, fluorescence, cell-free homogeneous | calls only | CAAX prenyl protease 2 (Saccharomyces cerevisiae (strain ATCC 204508 / S288c)), Q03530 | yeast membranes, quenched prenylated peptide cleavage fluorescence | 0.27% of 290,000 active;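 active means fall in fluorescence gain of 50% or more versus controls, with final raw signal at or below 3038400; inconclusive means same 50% fall but final raw signal above 3038400; inactive means fall in fluorescence gain under 50%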;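 further: plate controls were neutral control wells for no effect and wells lacking membranes for full effect; tested at 10 µM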
# Target sequence (Q03530 whole entry, looked up): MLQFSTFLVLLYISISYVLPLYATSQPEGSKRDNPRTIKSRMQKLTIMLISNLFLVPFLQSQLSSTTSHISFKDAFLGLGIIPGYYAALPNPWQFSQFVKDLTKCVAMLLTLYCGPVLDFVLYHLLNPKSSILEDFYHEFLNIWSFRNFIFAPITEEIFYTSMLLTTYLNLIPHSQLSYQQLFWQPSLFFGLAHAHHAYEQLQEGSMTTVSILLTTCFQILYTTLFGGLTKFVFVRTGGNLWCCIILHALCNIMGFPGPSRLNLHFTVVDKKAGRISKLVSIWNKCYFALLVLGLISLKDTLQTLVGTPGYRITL
# Yeast UUG start = modulators of yeast start codon fidelity, primary screen, whole organism, S. cerevisiae, single point, plate reader; S. cerevisiae UUG-firefly luciferase reporter, luminescence/redox ratio; 0.13% of 350,000 active; activity score, % at 18.7 µM; AID 602363, 2012;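 active means replicate mean at a twofold rise or more, about +100% in these data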;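 further: firefly luciferase made from a UUG start codon reports start codon fidelity; reporter light over untreated wells divided by growth signal over untreated wells; some hits fall short of that in this replicate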
# CSC inhib = cancer stem cell viability inhibitors, primary screen, luminescence; cancer stem cell-like cells viability; inhibition, % at 7.5 µM; 1.1% of 300,000 active;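 active means mean at 75% or more and at least half the replicates too; inconclusive means mean and replicates disagree; tested in HMLE shEcad cells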;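 further: 0% = median of negative and 100% = median of positive control wells; the first replicate is given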
# PABP FP inh = PABP poly(A) RNA binding inhibitors, primary screen, biochemical, fluorescence polarization, uHTS. inhibition, % at 35 µM. 1% of 290,000 active. Polyadenylate-binding protein 1 (Homo sapiens), P11940;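 active means 50% or more with normal probe brightness, or confirmed in later tests; inconclusive means above 50% with abnormal brightness, or retests that disagree; inactive means below 50% or failed in later tests; about a fifth of its hits are not listed in these tables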;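 further: calls also rest on retests at 20 µM and on dose response follow-up; controls were probe without protein and protein plus probe with vehicle; some compounds called inactive have numbers as strong as hits; many hits fall short of the cut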
# Target sequence (P11940 whole entry, looked up): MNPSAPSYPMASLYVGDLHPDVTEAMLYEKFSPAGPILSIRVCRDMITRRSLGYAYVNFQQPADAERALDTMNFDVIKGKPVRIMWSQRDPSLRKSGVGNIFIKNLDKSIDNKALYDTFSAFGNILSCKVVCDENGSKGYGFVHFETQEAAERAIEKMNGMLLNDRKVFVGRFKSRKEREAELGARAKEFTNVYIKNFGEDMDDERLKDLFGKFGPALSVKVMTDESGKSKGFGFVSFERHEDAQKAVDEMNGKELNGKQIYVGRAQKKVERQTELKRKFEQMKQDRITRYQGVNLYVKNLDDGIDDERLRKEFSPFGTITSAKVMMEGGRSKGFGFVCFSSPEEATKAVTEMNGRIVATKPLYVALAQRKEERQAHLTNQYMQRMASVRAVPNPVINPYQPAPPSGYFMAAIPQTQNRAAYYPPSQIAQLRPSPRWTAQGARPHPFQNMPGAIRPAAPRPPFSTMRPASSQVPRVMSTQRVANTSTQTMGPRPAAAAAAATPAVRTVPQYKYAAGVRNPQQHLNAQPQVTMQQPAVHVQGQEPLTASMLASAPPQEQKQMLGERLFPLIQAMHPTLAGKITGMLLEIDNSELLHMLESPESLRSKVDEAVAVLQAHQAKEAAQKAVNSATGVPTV
# HIV Env fusion = inhibitors of HIV-1 Env-driven cell-cell fusion, primary screen, HeLa-JRFL effector, CEM21 target cells, luciferase; inhibition, % at 12.3 µM; 1.1% of 360,000 active;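 active means mean replicate inhibition score of at least 50 and every replicate individually at or above 50; inconclusive means only one of the two criteria met; inactive means mean below 50 and not all replicates reaching 50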;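 further: 0% = plate neutral controls and 100% = maraviroc near 300 nM; one replicate is shown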
# eIF4H FP inh = human eIF4H binding inhibitors, primary screen, translation initiation inhibitor project, biochemical, uHTS, fluorescence polarization. Eukaryotic translation initiation factor 4H (Homo sapiens), Q15056. 0.94% of 290,000 active. inhibition, % at 35 µM. AID 2012, 2009. eIF4H fluorescence polarization binding assay;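 active means 50% or more with normal probe brightness, or confirmed in later tests; inconclusive means above 50% with abnormal brightness, or retests that disagree; inactive means below 50% or failed in later tests; about a fifth of its hits are not listed in these tables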;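 further: calls also rest on retests at 20 µM and on dose response follow-up; 0% = protein and probe with vehicle and 100% = probe without protein; strong numbers were not always called active; many hits fall short of the cut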
# eIF4H FP inh retest = recorded beside eIF4H FP inh, whose call it bears; inhibition, %; compound at 20 µM; confirmation average;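 mean of two retest wells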
# PABP FP inh retest = further read-out of PABP FP inh, marked with its call; inhibition, %; compound at 20 µM; confirmation repeats;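 mean of two retest wells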
# MT1-MMP act inh RFP = recorded beside MT1-MMP act inh, whose call it bears; RFP signal change, %; measured here: RFP expression control read;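 0 = vehicle wells; hits needed this value within 50% of zero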
# Starred values were filed as active, the others as inactive; i = inactive; u = inconclusive; x = not tested or not shown; & = joins results of further samples.
SMILES,MT1-MMP act inh,MT1-MMP act inh RFP,Rce1 inh,Yeast UUG start,CSC inhib,PABP FP inh,HIV Env fusion,eIF4H FP inh,others
COc1ccccc1C(=O)Nc1ccc(OCC(=O)N2CCCCC2C)cc1 (configuration not stated),1,-5,x,-4,x,x,i,x,
NS(=O)(=O)c1ccc(CCNC2CC(=O)N(Cc3ccccc3)C2=O)cc1 (configuration not stated),2,2,i,x,-3,-2,x,-13,
O=C(NCCc1cccs1)C1CC(c2ccc([N+](=O)[O-])cc2)=NO1 (configuration not stated),4,1,i,-17,0,-4,-81,-7,
CN(C)S(=O)(=O)c1cccc(NC(=O)Cc2ccc(-c3ccccc3)cc2)c1,2,-20,i,-16,15,-2,21,-6,
O=c1[nH]c(C2CCCN(S(=O)(=O)c3ccc(F)cc3)C2)nc2c1nnn2Cc1ccccc1 (configuration not stated),-1,-4,i,-6,5,6,x,-5,
COc1cc(COc2ccc(-c3nnco3)cc2)ccc1OC(F)F,9,3,i,-3,-8,9,-3,3,
O=C(O)C1=C[C@@H](c2ccccc2)C[C@@H](OCCCCO)O1,-5,1,i,-12,-11,x,-32,x,
CCc1ccc2c(c1)C(c1cccs1)=NNC(c1cccnc1)=N2,-2,2,i,-15,-12,-9,-30,-10,
Cc1ccc(NC(=O)COC(=O)CCC(=O)c2ccc(C(C)(C)C)cc2)c([N+](=O)[O-])c1,-1,2,i,x,-8,47,x,-5,
Nc1ccn(CCCN2CCN(Cc3cccc4ccccc34)CC2)c(=O)n1,8,7,x,-11,x,x,4,x,
Cc1occc1C(=O)NCCc1ccc(Cl)cc1,6,0,i,-1,-4,4,-87,8,
CC(C)C[C@@H](C(=O)NC1CC1)N1C(=O)N2CCc3c([nH]c4ccccc34)[C@@]2(C)C1=O,-2,-2,i,-6,4,-8,x,-4,
COc1ccc2sc(-c3ccc(N(C)C)cc3)c(-c3cnc(OC)nc3)c2c1,1,0,x,-8,71,x,-35,x,
O=C(N/N=C/c1ccc2c(c1)OCO2)c1ccc2c(c1)OCO2,0,6,i,-14,-3,-8,-31,-9,
Cc1noc(C)c1N=Nc1ccc(Br)cc1C(=O)O,-2,2,i,x,x,-11,-10,-1,
Cc1ccc2[nH]c3c(c2c1)CCCC3NCCO (configuration not stated),3,4,i,-12,0,5,12,-1,
COC(=O)CSc1nnc(CSc2nc(C)cc(C)n2)o1,2,3,x,x,-18,-2,23,12,
CC(NS(=O)(=O)c1ccc(OCC(=O)Nc2cccc([N+](=O)[O-])c2)cc1)c1ccccc1 (configuration not stated),2,-14,x,x,6,9,16,6,
O=C(CN1C(=O)NC2(CCCCC2)C1=O)NCCc1c[nH]c2ccccc12,-2,0,i,-9,x,-12,x,-6,
CN1C(=O)Cc2cc(S(=O)(=O)NCc3cccs3)ccc21,-3,-1,i,7,4,-7,-5,0,
O=C(Nc1nonc1-c1ccc(Cl)cc1)c1ccco1,-4,-6,i,-6,13,-1,4,-13,
Cc1cc(C)c(S(=O)(=O)n2ccc3ccccc32)c(C)c1,-2,-4,i,x,12,-15,25,2,
O=C(COC(=O)c1ccc(Cl)nc1)Nc1ccc2c(c1)OCO2,0,1,i,-12,-11,46,16,8,
CN(C(=O)CSc1nc2ccc([N+](=O)[O-])cc2s1)C1CCS(=O)(=O)C1 (configuration not stated),-8,-8,i,x,-10,-1,17,-5,
CC(/C=N/n1c(COc2ccccc2)n[nH]c1=S)=C\c1ccco1,0,4,i,x,-15,-6,-5,35,
O=C(Cc1ncc(C(F)(F)F)cc1Cl)NC1CC1,2,7,x,-1,-2,6,-3,5,
Cc1ccccc1COC(=O)CCC1=NS(=O)(=O)c2ccccc2N1,6,4,i,-2,-16,x,0,x,
COCc1ccc(C(=O)NC2CCCc3c2cnn3-c2cc(C)cc(C)c2)s1 (configuration not stated),-3,-22,i,3,x,3,1,-4,
CCOC(=O)C1CCN(C(=O)Cn2cc(C(=O)OC)c3ccccc32)CC1,0,3,i,-8,-11,8,-13,2,
O=[N+]([O-])c1ccc(C(=S)N2CCN(Cc3ccccc3)CC2)cc1,0,-1,i,-11,-13,8,x,1,
FC(F)(F)c1cnc(-c2cnc(-c3cccnc3)nc2)c(Cl)c1,-1,1,i,x,-5,2,-35,8,
Cc1oc2c(cc(NS(=O)(=O)c3ccc4c5c(cccc35)C(=O)N4)c3ccccc32)c1C(=O)OC(C)C,-12,-4,i,-14,30,5,-77,1,
CCN(Cc1ccccc1)S(=O)(=O)c1c[nH]c(C(=O)OC)c1,4,-3,i,-7,x,-10,3,-3,
CCN1/C(=C/c2ccc3cc(C)ccc3[n+]2CC)Sc2ccccc21,-37,46,i,x,102*,16,-29,10,
CN(C)CCCNC(=O)/C=C/c1ccc(OCc2c(F)cccc2Cl)cc1,3,-3,i,-1,-8,5,0,-6,
COc1cccc(/C=C/C(=O)Nc2ccccc2N2CCOCC2)c1,1,-3,i,12,5,-4,13,-4,
CCN(CC(=O)Nc1ccc2c(c1)OCCO2)C(=O)COc1ccc(C)cc1,-2,0,i,-10,-1,12,-2,5,
Cc1nc(SCC(=O)N2CCCCC2)c2c(C)c(C)sc2n1,-2,-7,i,x,-17,10,4,-3,
CCOc1ccc(OCC(=O)OCC(=O)Nc2ccc3[nH]c(=O)[nH]c3c2)cc1,-1,-5,x,0,x,x,-7,x,
Cc1ccccc1NS(=O)(=O)c1ccc(C(=O)N(C)CC(=O)Nc2ccccc2Br)cc1,4,-3,x,-23,1,x,x,x,
N#Cc1cccc(NC(=O)c2nc(-c3ccccc3)n(-c3ccccc3)n2)c1,-16,-6,i,-14,-4,1,-40,1,
CCOC(=O)C(C(=O)c1ccccc1)C(c1ccccc1)c1nccc2ccccc12 (configuration not stated),-5,-6,x,-11,x,x,3,x,
CC(OC(=O)c1ccc(-n2cnnn2)cc1)C(=O)Nc1ccccc1F (configuration not stated),6,4,x,-7,x,x,-14,x,
CCCn1nc2cc(C(=O)NCCCCc3ccccc3)ccc2c1OCC,5,-1,i,-19,31,3,-26,-8,
CC1CCN(S(=O)(=O)c2ccc(C(=O)N3CCCCC3C(=O)O)cc2)CC1 (configuration not stated),5,3,x,-3,x,x,8,x,
O=C(Cc1csc(Nc2nc(=S)[nH]c3ccccc23)n1)NCCCN1CCN(c2ccccc2F)CC1,0,-5,i,-22,31,u,25,-1,
Cc1cc(C(=O)Nc2ccccc2C(=O)O)ccc1NC(=O)COc1ccccc1Cl,-4,1,i,-7,-9,19,-266,-8,
O=C(Nc1c(-c2ccc(F)cc2)nc2ccccn12)c1ccc(F)cc1,-3,-2,i,6,-4,-1,32,-11,
COc1ccc(OC)c(NC(=O)CCN2CCN(C)CC2)c1,2,4,i,-8,3,1,-3,7,
CCCn1c(SCC(=O)Nc2cccc(S(=O)(=O)N(C)C)c2)nc2ccccc2c1=O,-4,-4,i,-6,7,1,5,-1,
COCCCN1CCN(C2Cc3ccccc3Sc3ccc(Cl)cc32)CC1 (configuration not stated),-2,-10,i,-28,5,-3,-6,6,
CN(C(=O)Cn1nc(Cl)ccc1=O)C1CCCN(Cc2ccccc2F)C1 (configuration not stated),1,3,i,-17,-7,-1,-4,-14,
C[C@H](CO)N1C[C@H](C)[C@@H](CN(C)S(=O)(=O)c2ccc(F)cc2)Oc2c(NC(=O)c3ccncc3)cccc2C1=O,-1,2,x,-7&-14,x,x,-12,x,
Cc1cc(-c2ccccc2)nc2cc(C(N)=O)nn12,-4,-3,i,7,-12,-11,x,8,
COc1cc(Cl)c(C)cc1NC(=O)COC(=O)c1cnc(C)cn1,5,5,i,-20,1,7,x,-11,
CC(CNC(=S)Nc1cc(F)cc(F)c1)CSc1ccc(Cl)cc1 (configuration not stated),-2,-17,i,-31,87*,-11,78*,-8,
O=C(C[n+]1cc(Br)cc(Br)c1)c1ccccc1,-8,2,i,x,1,9,25,5,
CCN(CC)C(c1ccc(F)cc1)c1nnnn1CC1CCCO1 (configuration not stated),8,9,i,x,-6,-1,x,11,
O=C(N/N=C/c1c(F)cccc1Cl)C1CC1,2,6,i,-10,-4,6,-2,0,
COC(=O)c1ccc(N2CCOCC2)c(F)c1,11,0,i,0,-8,-5,x,2,
# Next compounds.
SMILES,MT1-MMP act inh,MT1-MMP act inh RFP,Rce1 inh,Yeast UUG start,CSC inhib,PABP FP inh,HIV Env fusion,eIF4H FP inh,others
CCOC(=O)C1=C(COC(=O)c2ccco2)NC(=O)NC1CC (configuration not stated),1,0,x,-3,x,x,-5,x,
CS(=O)(=O)N(CC(=O)N1CCCC1)Cc1ccc(Cl)c(Cl)c1,0,-2,i,1,-15,5,10,5,
COc1cccc(OC)c1C(=O)Nc1ccc(N2CCN(S(C)(=O)=O)CC2)cc1,1,3,i,-4,-9,-12,-10,8,
Cc1nnc2sc(-c3ccco3)nn12,5,-1,i,0,-2,0,x,-4,
CCc1nnc(NC(=O)CSc2ccc(-c3ccccc3OC)nn2)s1,4,5,i,x,-14,-7,4,-5,
O=C(Oc1cccc2cccnc12)c1ccc(N2C(=O)C3C4CCC(C4)C3C2=O)cc1 (configuration not stated),2,7,i,x,0,-4,-31,8,
CC1=CC(C)(C)N(S(=O)(=O)c2ccc(F)cc2)c2ccccc21,-4,-13,i,-1,x,-3,x,-8,
COc1ccc(-n2nc(C(=O)Nc3ccc4c(c3)OCO4)c3ccccc3c2=O)cc1,-5,-5,i,x,-7,-12,x,5,
On1c(-c2ccco2)nc2c1CCc1nonc1-2,-1,1,i,-20,-6,35,-49,33,
O=C(O)c1ccc(C(=O)Nc2cccc3ccccc23)c(C(=O)O)c1,1,7,i,-24,x,34,16,-3,
O=C(NCc1ccco1)c1ccc(COCC(F)(F)C(F)F)cc1,5,-6,i,-16,13,7,x,14,
Cc1ccccc1OCc1nc(C#N)c(N2CCCC2)o1,3,4,i,x,-6,7,14,6,
COc1ccc(CC(=O)Nc2ccc(OC)nc2)cc1,4,3,i,-14,0,0,-1,-1,
CCN1C(=O)[C@H]2[C@H]3CN=C(SCc4ccc(C(=O)OC)cc4)N3[C@@](CC)(C(=O)OC)[C@H]2C1=O,2,2,x,-12,x,x,-17,x,
O=C(COC(=O)c1cccc(Br)c1)NCC1CCCO1 (configuration not stated),3,1,x,-7,-11,x,27,x,
O=c1cc(-c2ccc(O)cc2)oc2cc(O)c(C3OC(CO)C(O)C(O)C3O)c(O)c12 (configuration not stated),22,14,x,-13,-12,21*,x,67*,eIF4H FP inh retest=68*;PABP FP inh retest=57*
COc1cccc(C(=O)NCCS(=O)(=O)N2CCOCC2)c1,4,3,i,-10,-8,x,-2,x,

# In the list so far, 2 contain a CF3 group:
SMILES,MT1-MMP act inh,MT1-MMP act inh RFP,Rce1 inh,Yeast UUG start,CSC inhib,PABP FP inh,HIV Env fusion,eIF4H FP inh,others
O=C(Cc1ncc(C(F)(F)F)cc1Cl)NC1CC1,2,7,x,-1,-2,6,-3,5,
FC(F)(F)c1cnc(-c2cnc(-c3cccnc3)nc2)c(Cl)c1,-1,1,i,x,-5,2,-35,8,
